Compound activity: PubChem BioAssay, several laboratories
UCH37 DUB inh: inhibitors of human UCH37 deubiquitinase, primary screen, biochemical, Ub-AMC cleavage, fluorescence | Ubiquitin carboxyl-terminal hydrolase isozyme L5 (Homo sapiens), Q9Y5K5 | purified proteasome/UCH37 | inhibition, % (concentration not given with the values) | 0.33% of 330,000 active | AID 588478, 2011;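 active means mean of two replicates above 20%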;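 further: 0% = compound-free wells with enzyme and 100% = wells lacking proteasome; stock transfer was 100 nL into about 20 µL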
Target sequence (Q9Y5K5 whole entry, looked up): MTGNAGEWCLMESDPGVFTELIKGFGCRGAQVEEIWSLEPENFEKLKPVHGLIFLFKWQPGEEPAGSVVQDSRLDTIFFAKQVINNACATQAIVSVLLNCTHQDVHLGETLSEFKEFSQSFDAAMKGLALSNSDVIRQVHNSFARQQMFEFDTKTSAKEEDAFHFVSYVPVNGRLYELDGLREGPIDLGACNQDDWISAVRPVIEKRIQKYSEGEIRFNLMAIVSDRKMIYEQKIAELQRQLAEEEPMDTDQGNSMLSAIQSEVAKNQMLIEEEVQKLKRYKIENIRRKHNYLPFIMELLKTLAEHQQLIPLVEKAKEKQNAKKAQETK
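Material: Human UCH37 enzyme supplied as purified proteasome complex | Schedule: 30 min preincubation with enzyme, 25 min cleavage at room temperature | Detection: AMC fluorescence 355/460 nm | Measure: % inhibition of Ub-AMC cleavage fluorescence | Controls: Wells without proteasome as full block, compound-free enzyme plus substrate as uninhibited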
Bfl-1 A1 inh: caspase 3/7 activation in MEF A1-2A-BIM cells, primary screen, A1 inhibitor project, cell-based, luminescence, HTS | caspase activation, % (concentration not given with the values) | Caspase-Glo 3/7 luminescence, 3 h; percent of clofoctol response, vehicle zero | 0.066% of 330,000 active;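 active means over half of replicate activation scores above 10%, or exactly half above 10 with the replicate mean above 10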;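 further: wells of about 30 µL received 50 nL stock; many hits fall short of the cut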
FGF22 binding: binders of human FGF22 protein, primary screen, FGF22 synaptogenesis inhibitor project, biophysical, thermal shift, single point; recombinant FGF22 thermal shift, SYPRO orange fluorescence; percent of sucrose octasulfate shift, DMSO zero; calls only at 9.99 µM; 1.5% of 340,000 active; AID 651658, 2012;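 active means melting point raised past a set limit in the mean and every replicate; three in four hits are not shown here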
Target sequence (Q9HCT0 whole entry, looked up): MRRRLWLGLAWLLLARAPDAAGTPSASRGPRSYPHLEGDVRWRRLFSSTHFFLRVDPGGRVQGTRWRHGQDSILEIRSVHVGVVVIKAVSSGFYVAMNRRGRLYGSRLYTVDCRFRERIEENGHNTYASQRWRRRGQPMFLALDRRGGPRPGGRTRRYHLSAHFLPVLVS
Beta cell apopt: inhibitors of cytokine-induced beta cell apoptosis, primary screen, luminescence; INS-1E cytokine-induced death, ATP luminescence, 48 h; percent of positive-control rescue, neutral wells zero; protection from apoptosis, % (concentration not given with the values); 0.8% of 300,000 active;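 active means all replicates at 75% or more, or half of them and the mean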;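 further: 0% = cytokine-treated negative control wells and 100% = positive control rescue; higher means more ATP so stronger rescue from cytokine killing; wells of about 40 µL received 100 nL stock; the first replicate is given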
MLL AF4-AF9 inh: inhibitors of AF4 peptide binding to AF9, primary screen, biochemical, AlphaScreen, biotin-AF4 peptide, FLAG-AF9, single point; Protein AF-9 (Homo sapiens), P42568; inhibition, % at 10 µM; 0.47% of 350,000 active;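 active means every replicate reaching a set inhibition limit, whatever the replicate mean, cut at about 25% in these data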;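 further: 0% = plate neutral control median and 100% = total signal loss; the record names both 10 and 1 µM as test concentration; the first replicate is given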
Target sequence (P42568 whole entry, looked up): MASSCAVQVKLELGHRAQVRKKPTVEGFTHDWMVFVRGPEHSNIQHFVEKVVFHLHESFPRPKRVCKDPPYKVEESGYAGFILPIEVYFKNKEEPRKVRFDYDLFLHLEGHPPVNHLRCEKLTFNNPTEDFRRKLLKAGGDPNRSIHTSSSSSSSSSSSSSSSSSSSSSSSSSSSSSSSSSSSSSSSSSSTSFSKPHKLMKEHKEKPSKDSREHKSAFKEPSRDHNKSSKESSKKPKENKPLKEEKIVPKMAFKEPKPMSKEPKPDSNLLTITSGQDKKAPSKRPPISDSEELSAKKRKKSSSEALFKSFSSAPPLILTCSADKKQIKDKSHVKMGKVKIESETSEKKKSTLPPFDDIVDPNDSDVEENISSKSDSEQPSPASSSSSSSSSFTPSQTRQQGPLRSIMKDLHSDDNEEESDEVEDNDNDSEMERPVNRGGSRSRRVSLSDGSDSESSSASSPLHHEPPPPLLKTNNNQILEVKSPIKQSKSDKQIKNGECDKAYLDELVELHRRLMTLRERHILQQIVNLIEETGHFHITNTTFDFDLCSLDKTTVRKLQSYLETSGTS
rRNA inh HTS: reduced GFP signal of wild-type E. coli, primary screen, bacterial rRNA inhibitor project, GFP/RFP fluorescence, OD600, single point. E. coli WT GFP vs humanized-ribosome RFP mutants, 24 h; active compounds read low; DMSO median 0, no signal -100. GFP signal change (wild-type ribosome), % (test concentration not listed). 1.6% of 350,000 active;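 active means significant combined selectivity score with lowered wild-type GFP, culture density cut under 30%, mutant RFP and density less affected; inactive means any of these conditions unmet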; further: one replicate is shown; some compounds called inactive have numbers as strong as hits
T cruzi repl: inhibitors of intracellular T. cruzi growth, primary screen, luminescence, NIH3T3 host cells. T. cruzi beta-gal in NIH3T3, 90 h. inhibition, % (no concentration beside the values). 1.4% of 300,000 active;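 active means mean inhibition across valid replicates above about 55%, limit read from the data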;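 further: signal also drops with host cell toxicity which is not excluded here; 0% = plate median of DMSO wells and 100% = zero luminescence signal; higher percent means less beta-gal luminescence so fewer parasites; stock transfer was 50 nL into about 50 µL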
E coli growth: E. coli growth inhibition, primary screen, OD600; Escherichia coli growth, 23 h; active compounds read low; OD600 absorbance (no concentration beside the values); 0.21% of 330,000 active; AID 1053175, 2014;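 active means OD600 absorbance below the run mean of sample wells minus 3.6 SD, in any replicate, cut at about 0.56 in these data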;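 further: stock transfer was 300 nL into about 60 µL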
rRNA inh HTS OD600: second read-out of rRNA inh HTS, no call of its own (marks repeat the call); OD600 change, %; measured here: OD600 growth;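 optical density of the mix in the first replicate; 0 = DMSO median and -100 = no signal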
rRNA inh HTS RFP: further read-out of rRNA inh HTS, marked with its call; RFP signal change, %; measured here: RFP humanized mutant strains;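 first replicate; 0 = DMSO median and -100 = no signal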
* = called active by the depositor; i = inactive; x = no result given; & = joins results of further samples. Not all compounds are listed, so the mix of outcomes need not match the whole.

The line under a structure holds: UCH37 DUB inh, Bfl-1 A1 inh, FGF22 binding, Beta cell apopt, MLL AF4-AF9 inh, rRNA inh HTS, rRNA inh HTS OD600, rRNA inh HTS RFP, T cruzi repl, E coli growth
(1) CCCn1cnc2cc(NCc3cccs3)ccc21
  -4.4, 0.6, i, -1.8, 9.5, -4.8, 6.0, 1.5, -2.1, 0.652
(2) CCCCC(C(=O)NC1CCCC1)N(C(=O)c1snc(C(N)=O)c1N)c1ccc(C)cc1 (centres undefined)
  -28.5, -0.7, i, 8.5, -1.3, -3.4, -10.6, -2.6, 12.3, 0.722
(3) COc1cccc(Nc2ncnc3onc(-c4ccccc4OC)c23)c1
  -1.0, -1.1, i, -0.8, -2.9, 12.4, 15.9, 3.0, -11.3, 0.724
(4) CCOC(=O)c1nc(C)n(-c2ccc([N+](=O)[O-])cc2)n1
  1.1, -0.7, i, 0.3, -1.8, 9.4, 8.5, -2.0, 4.7, 0.662
(5) COc1ccc(-c2oc3ncn4nc(COc5ccccc5)nc4c3c2-c2ccc(OC)cc2)cc1
  -274.2, 0.6, x, -1.8, x, x, x, x, -13.5, 0.739
(6) CC(=O)c1cccc(N(CC(=O)Nc2ccc(S(=O)(=O)N3CCCC3)cc2)S(C)(=O)=O)c1
  -1.2, 1.9, i, x, 0.5, 7.2, 5.3, 2.4, 4.9, 0.725
(7) Cc1nc(SCC(=O)NCCc2ccccc2)nc(C)c1C
  3.9, -0.7, x, -9.9, x, x, x, x, 1.1, 0.754
(8) CCOC(=O)/C(C#N)=C1\C=CN(C)C(C)=N1
  15.1, -0.3, x, x, x, x, x, x, -4.2, 0.699
(9) CC(C)Nc1nc(-c2ccccn2)nc(-c2ccccc2)c1C#N
  x, 1.1, i, x, -2.6, -10.6, 7.3, -0.3, -19.0, x
(10) O=C(COc1ccccc1-c1ccccc1)c1ccccc1
  4.9, 1.0, x, 8.7, x, x, x, x, 5.0, 0.707
(11) Cc1ccc(S(=O)(=O)N(C)C)cc1NC(=O)COC(=O)CC1CCCC1
  2.4, 0.1, i, 0.5, -1.6, 2.7, 10.9, 2.3, -6.3, 0.684
(12) CC(CCC(=O)O)(c1ccc(O)cc1)c1ccc(O)cc1
  -1.0, -0.2, i, -3.5, x, 3.4, 8.0, 0.7, x, 0.657
(13) Cc1ccc(N2CC(C(=O)Nc3nnc(SCCN4CCOCC4)s3)CC2=O)cc1C (centres undefined)
  1.8, -1.9, i, -0.8, -1.7, 5.6, 2.5, 2.3, 11.8, 0.676
(14) OCc1ccccc1OCCCOc1cccc2cccnc12
  3.4, -3.3, i, -1.4, -4.2, -9.5, -4.3, 0.0, 12.7, 0.649
(15) N#CCSc1nnc(Cc2ccc3c(c2)OCO3)o1
  -0.4, 0.8, x, 0.7, x, x, x, x, -1.2, 0.694

Gathered by group, those above with an aryl thioether with sulfur outside any ring
The line under a structure holds: UCH37 DUB inh, Bfl-1 A1 inh, FGF22 binding, Beta cell apopt, MLL AF4-AF9 inh, rRNA inh HTS, rRNA inh HTS OD600, rRNA inh HTS RFP, T cruzi repl, E coli growth
(7) Cc1nc(SCC(=O)NCCc2ccccc2)nc(C)c1C
  3.9, -0.7, x, -9.9, x, x, x, x, 1.1, 0.754
(13) Cc1ccc(N2CC(C(=O)Nc3nnc(SCCN4CCOCC4)s3)CC2=O)cc1C (centres undefined)
  1.8, -1.9, i, -0.8, -1.7, 5.6, 2.5, 2.3, 11.8, 0.676
(15) N#CCSc1nnc(Cc2ccc3c(c2)OCO3)o1
  -0.4, 0.8, x, 0.7, x, x, x, x, -1.2, 0.694

Other compounds
The line under a structure holds: UCH37 DUB inh, Bfl-1 A1 inh, FGF22 binding, Beta cell apopt, MLL AF4-AF9 inh, rRNA inh HTS, rRNA inh HTS OD600, rRNA inh HTS RFP, T cruzi repl, E coli growth
(16) Cc1ccc(OCC(=O)N2CCN(C(=O)CCC3CCCC3)CC2)cc1
  4.2, 0.3, x, 1.5, x, x, x, x, 2.8, 0.75
(17) O=C(O)Cn1cnc2scc(-c3cccs3)c2c1=O
  1.0, 0.0, x, -1.9, x, x, x, x, 1.1, 0.692
(18) CCN(CC)S(=O)(=O)c1ccc(C(=O)Nc2nnc(C(C)C)s2)cc1
  1.7, 0.4, i, -2.5, -17.5, -0.1, 7.6, -7.0, -2.1, 0.722
(19) COc1ccc(C(=O)Oc2c(OC)cc(C(=S)N3CCOCC3)cc2OC)cc1OC
  2.3, 0.8, i, 1.8, 7.6, -1.2, -3.9, 1.4, -3.3, 0.633
(20) Cc1ccccc1-c1nc(-c2ccc(NC(=O)c3ccc4c(c3)OCO4)cc2)no1
  -0.6, -1.8, x, 9.0, x, x, x, x, 5.6, 0.755
(21) COc1ccc(CCC(=O)NCc2ccccc2OC)cc1
  1.5, 1.3, i, -2.4, 2.0, 5.8, -2.4, -5.3, -1.9, 0.676
(22) CNCCOc1ccccc1-c1ccccc1
  1.6, 0.3, x, 1.7, x, x, x, x, 2.8, 0.661
(23) Cn1c(=O)[nH]c(=O)c2c1nc(Sc1ccccc1)n2CCc1ccccc1
  2.8, 0.0, i, x, 2.5, -2.9, 1.8, -5.2, 11.9, 0.746
(24) O=C(Nc1cccc(-n2cnnn2)c1)c1ccoc1COc1ccc(Cl)cc1
  2.0, -0.7, i, x, 1.4, -5.3, 8.8, 2.8, 46.0, 0.668
(25) COc1cccc(CC(=O)NNC(=O)c2ccc3c(c2)OCO3)c1
  1.1, -0.5, i, 0.7, -3.1, -3.8, 6.0, 5.0, 6.4, 0.689
(26) COc1ccccc1NC(=O)C(=O)N/N=C(\C)CC(=O)Nc1ccccn1
  x, -0.4, i, 0.1, -0.1, -5.8, -10.6, -3.7, -6.6, x
(27) CC(C)N(C)Cc1cn(C)nc1-c1ccc(Oc2ccccc2)cc1
  1.7, 1.8, i, -4.4, 3.1, -6.0, 3.5, -0.7, -2.5, 0.683
(28) Cc1ccc(-c2nc(S(=O)(=O)c3ccc(C)cc3)c(N3CCOCC3)o2)cc1
  -5.7, -0.3, i, -5.2, 1.8, 6.8, 11.1, -1.6, -2.0, 0.697
(29) Cc1ccc(CNC(=O)C2CCCN(c3nc4ccccc4o3)C2)cc1 (centres undefined)
  2.7, -1.3, i, -1.8, 2.8, 9.2, 15.7, 2.8, -0.1, 0.714
(30) O=C(CCCOc1ccc(Cl)cc1Cl)Nc1cccnc1
  3.8, 1.0, x, 0.4, x, x, x, x, -3.2, 0.639

Other compounds:
no.	smiles	UCH37 DUB inh	Bfl-1 A1 inh	FGF22 binding	Beta cell apopt	MLL AF4-AF9 inh	rRNA inh HTS	rRNA inh HTS OD600	rRNA inh HTS RFP	T cruzi repl	E coli growth
31	CCOc1ccc(Br)cc1C(=O)N/N=C/c1ccccn1	x	-0.2	i	-0.1	1.7	-21.2	-33.0	-5.3	-1.8	x
32	CCCNC(=O)c1onc(CSc2ccc(F)cc2)c1C(=O)NCCC	1.3	0.6	i	-2.8	x	-2.9	-5.5	0.5	-12.1	0.714
33	COc1ccc(/C(O)=C2\C(=O)C(=O)N(c3cc(C)on3)C2c2cccc(OC)c2OC)cc1C (centres undefined)	8.6	0.5	x	1.6	x	x	x	x	-5.2	0.707
34	Cc1ccc(C(=O)N(C)CC(=O)Nc2cccc(F)c2)cc1S(=O)(=O)N1CCCCC1	-3.1	-0.1	i	-4.7	-4.8	-1.6	-1.0	-0.2	1.2	0.686
35	CCOCCCNC(=O)c1c[nH]c2c(CC)cccc2c1=O	3.0	0.6	i	x	-8.3	-17.4	-14.8	3.0	-8.0	0.727
36	CN(c1ccccc1)S(=O)(=O)c1cccc(C(=O)NCC(=O)Nc2ccc(F)c(F)c2F)c1	1.9	0.4	i	3.5	1.1	-13.3	-33.4	1.9	x	0.684
37	O=C(Nc1ccccc1F)C1CCN(C(=O)NC2CCCCC2)CC1	x	-0.2	i	0.1	-2.1	6.6	14.1	-2.5	-9.6	x
38	CC1CCCCN1C(=O)COC(=O)c1n[nH]c2ccccc12 (centres undefined)	0.3	0.3	x	-3.9	x	-5.7	-2.7	0.2	-0.5	0.646
39	COc1ccc2nc(-n3c(C)ccc3C)sc2c1	3.2	-0.6	i	2.2	-12.3	1.4	3.0	3.7	-10.0	0.693
40	COCc1cc(Sc2ccc(Cl)cc2)nc(C)n1	7.0	-0.4	i	-5.9	-2.1	-2.9	-6.5	-5.0	-8.0	0.627
41	CC(C)C[C@@H](CO)N1CCN(CCc2ccccc2)CCC1=O	1.7	-0.9	i	-2.4	1.1	14.2	17.9	10.5	-10.5	x
42	COc1cc(C=C(c2nc3ccccc3s2)c2nc3ccccc3s2)ccc1O	6.2	-0.5	i	-1.5	3.9	0.2	0.5	-0.2	35.4	0.729
43	CCNC(=O)N1CCOCC1	1.9	-0.1	x	2.8	x	x	x	x	-17.2	0.633
44	CCOC(=O)c1sc(=NC(=O)CCSc2ccccc2)n(C)c1C	-0.2	0.2	i	9.0	-2.8	1.2	0.8	-0.5	24.4	0.721
45	O=[N+]([O-])c1ccc(CN2CCN(c3ccccc3)CC2)o1	8.0	0.9	i	-8.3	2.6	18.0	2.0	13.7	36.1	0.692
46	CCOc1ccc(NC(=O)N(C2CCCCC2)C(C)c2ccncc2)cc1 (centres undefined)	1.9	0.4	x	-0.9	x	x	x	x	7.3	0.626
47	COc1ccc(N2CCN(CC(=O)Nc3ccc(-n4cnnn4)cc3)CC2)cc1	0.7	0.0	x	0.7	x	x	x	x	-5.9	0.704
48	CC(=O)N1CCc2cc(S(=O)(=O)NC(C)c3ccccc3)ccc21 (centres undefined)	3.3	0.8	i	7.1	0.6	7.2	1.3	2.8	-2.4	0.684
49	O=C1CCC(=O)N(O)CCCCCNC(=O)CCC(=O)N(O)CCCCCNC(=O)CCC(=O)N(O)CCCCCN1	0.8	1.4	i	-3.1	-4.5	-6.5	2.1	0.0	-4.5	0.594
50	CCC(C)Sc1cc(-c2nc3ccccn3c2NC2CCCCC2)ccc1OC (centres undefined)	-181.4	0.0	i	30.7	4.2&4.7	1.7&-8.8	-12.4&-2.8	6.2&-1.8	31.9	0.774
51	Cc1ccc(/C(N)=N/OC(=O)c2ccc(F)cc2)cc1	1.3	-6.0	x	-5.6	x	x	x	x	1.7	0.673
52	Cc1ccc(-n2c(N)cc(=O)nc2SCC(=O)N2CCN(c3ccccc3)CC2)cc1C	3.3	0.5	i	-3.7	2.2	-2.3	-4.5	-0.4	-3.6	0.706
53	CC(=O)Oc1ccc(Oc2ccc(-c3noc(C)n3)cc2)cc1	2.4	-0.8	x	7.6	x	x	x	x	21.4	0.689
54	O=C(COc1ccccc1)NCC(=O)N/N=C/c1cccs1	x	0.7	i	-5.3	2.1	4.7	-2.4	0.9	-4.9	x
